Source: PubChem BioAssay (Broad Institute)
AF4-AF9 inh: MLL-AF4/AF9 protein interaction inhibition | AlphaScreen, biotin-AF4 peptide binding to FLAG-AF9 | inhibition, % at 10 µM | hit rate 0.47% among 350,000;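 active = every replicate reaching a set inhibition limit, whatever the replicate mean, cut at about 25% in these data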;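 also: 0% = plate neutral control median and 100% = total signal loss; the record names both 10 and 1 µM as test concentration; the first replicate is given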
Target sequence (P42568 whole entry, looked up): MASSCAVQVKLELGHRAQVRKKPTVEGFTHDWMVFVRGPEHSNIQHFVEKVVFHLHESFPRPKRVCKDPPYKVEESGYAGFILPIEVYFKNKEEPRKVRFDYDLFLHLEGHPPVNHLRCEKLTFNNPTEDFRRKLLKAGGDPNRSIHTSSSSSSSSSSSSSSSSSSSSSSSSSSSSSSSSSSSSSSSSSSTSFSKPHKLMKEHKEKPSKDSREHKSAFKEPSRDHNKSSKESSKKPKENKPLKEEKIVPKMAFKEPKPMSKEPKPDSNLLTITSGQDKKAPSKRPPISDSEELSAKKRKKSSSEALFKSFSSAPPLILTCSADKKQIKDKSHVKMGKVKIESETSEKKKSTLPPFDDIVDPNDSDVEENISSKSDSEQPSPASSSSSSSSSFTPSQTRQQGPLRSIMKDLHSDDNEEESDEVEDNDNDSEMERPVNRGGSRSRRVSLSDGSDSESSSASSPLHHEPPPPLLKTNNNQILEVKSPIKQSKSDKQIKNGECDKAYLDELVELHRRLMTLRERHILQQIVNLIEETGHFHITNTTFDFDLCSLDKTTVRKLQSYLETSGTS
FGF22 binding: binders of recombinant human FGF22 by thermal shift | Q9HCT0 | SYPRO orange fluorescence; percent of sucrose octasulfate shift, DMSO zero | calls only at 9.99 µM | hit rate 1.5% among 340,000 | AID 651658;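 active = melting point raised past a set limit in the mean and every replicate; three in four hits are not shown here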
Target sequence (Q9HCT0 whole entry, looked up): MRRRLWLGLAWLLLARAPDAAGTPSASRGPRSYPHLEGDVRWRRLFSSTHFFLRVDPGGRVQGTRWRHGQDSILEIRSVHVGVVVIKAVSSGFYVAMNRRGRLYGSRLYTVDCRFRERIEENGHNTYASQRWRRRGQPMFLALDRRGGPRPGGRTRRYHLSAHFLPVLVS
rRNA inh HTS: selective bacterial rRNA inhibition in E. coli. E. coli WT GFP vs humanized-ribosome RFP mutants, fluorescence, 24 h; hits give low values; DMSO median 0, no signal -100. GFP signal change (wild-type ribosome), % (concentration not given with the values). hit rate 1.6% among 350,000. AID 720706;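 active = significant combined selectivity score with lowered wild-type GFP, culture density cut under 30%, mutant RFP and density less affected; inactive = any of these conditions unmet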; also: one replicate is shown; some compounds called inactive have numbers as strong as hits
rRNA inh HTS OD600: also measured in rRNA inh HTS; calls as there; OD600 change, %; measured here: OD600 growth;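 optical density of the mix in the first replicate; 0 = DMSO median and -100 = no signal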
rRNA inh HTS RFP: recorded beside rRNA inh HTS, whose call it bears; RFP signal change, %; measured here: RFP humanized mutant strains;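 first replicate; 0 = DMSO median and -100 = no signal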
Numbers without * were called inactive; i = inactive; + = active, no number; & = joins results of further samples. This is a subset (hit frequency here may not be typical).

SMILES	AF4-AF9 inh	FGF22 binding	rRNA inh HTS	rRNA inh HTS OD600	rRNA inh HTS RFP
O=C(C[C@H]1CC[C@H]2[C@@H](COC[C@@H](O)CN2C(=O)C2CC2)O1)NCc1ccncc1	-2.2	+	1	6	-3.1
O=C(C[C@@H]1CC[C@@H]2[C@H](COC[C@@H](O)CN2CCC(F)(F)F)O1)NCC1CC1	-1.3	i	2	1	0.3
CO[C@H]1CN(C)C(=O)c2ccc(NC(=O)c3ccc4c(c3)OCO4)cc2OC[C@@H](C)N(CCC(F)(F)F)C[C@H]1C	3.9	i	-4	-13	15
CCCN(C)C[C@@H]1Oc2cc(C#C[C@H](C)O)ccc2S(=O)(=O)N([C@@H](C)CO)C[C@@H]1C	-1.1	i	3	-6	-3.8
CC(C)C#Cc1cnc2c(c1)C(=O)N([C@H](C)CO)C[C@@H](C)[C@@H](CN(C)C(=O)c1ccc3c(c1)OCO3)O2	-4.3	i	4	7	-5.5
CO[C@H]1CC[C@H]2CCN(C)C(=O)[C@@H](C)[C@@H](OC)CN(C)C(=O)c3cccc(C#N)c3OC[C@@H]1O2	-2.6	i	1	2	-1.0
COC(=O)C1C(=O)N(S(=O)(=O)c2ccc([N+](=O)[O-])cc2)c2ccccc21 (centres undefined)	1.9	i	10	0	-1.2
CCCC(=O)Nc1ccc2c(c1)C(=O)N(C)C[C@H](OC)[C@H](C)CN(CCC(F)(F)F)[C@@H](C)CO2	5.6	i	-1	4	0.8
COC(=O)C[C@H]1C[C@@H]2c3cc(NC(=O)c4cccnc4)ccc3O[C@@H]2[C@H](CO)O1	-1.3	i	2	7	-1.1
CC(C)(C)NC(=O)C(c1cc2ccccc2o1)n1c(=O)c(-c2ccccc2)nc2ccccc21 (centres undefined)	5.2	i	3	11	-2.8
O=C(N[C@@H]1CC[C@@H](CCNC(=O)C2CCCC2)O[C@@H]1CO)c1ccncc1	1.8	i	0	0	-0.2
O=C(Nc1ccc(C(F)(F)F)cc1)N[C@@H]1CC[C@H](CCn2cc(C3(O)CCCC3)nn2)O[C@H]1CO	1.6	i	-4	-15	3.1
C[C@H](NC(=O)C[C@@H]1CC[C@@H]2[C@H](COC[C@H](O)CN2C(=O)Nc2cccc(F)c2)O1)c1ccccc1	-0.8	i	-15	-30	0.9
CN1c2ccc(C#Cc3cccnc3)cc2[C@H]2[C@H](CCN2C(=O)Nc2cc(F)ccc2F)[C@@H]1CO	-0.6	i	-2	-1	4.6
COc1cc([N+](=O)[O-])c2nc(C(=O)O)ccc2c1	-3.3	i	50	1	14
COc1ccc(NC(=O)N2C[C@@H]3[C@H](c4ccccc42)[C@H](CO)N3Cc2ccccn2)cc1	4.7	i	-3	-11	3.3
COc1ccc2c3c(n(C)c2c1)[C@@H](CO)N(Cc1cccc(F)c1)CC31CN(C)C1	2.6	i	1	-1	-0.4
O=C(C[C@@H]1C[C@H]2c3cc(NC(=O)C4CCC4)ccc3O[C@H]2[C@H](CO)O1)NC1CCCCC1	1.2	i	-5	-2	-3.4
C[C@H](O)C#Cc1ccc2c(c1)O[C@@H](CN(C)C(=O)Cc1ccccn1)[C@@H](C)CN([C@H](C)CO)S2(=O)=O	-2.2	i	3	2	-4.5
CN(C)c1ccc(-c2ccnc3c2CC(C)(C(=O)Nc2cccc(N(C)C)c2)O3)cc1 (centres undefined)	18	i	3	11	-3.0
C[C@H](CO)N1C[C@H](C)[C@@H](CN(C)Cc2ccc3c(c2)OCO3)OCCCC[C@H](C)Oc2ccc(NC(=O)CCCN(C)C)cc2C1=O	3.7	i	4	9	-0.3
Cn1cnc(S(=O)(=O)N2CCCCN3[C@H](CO)[C@@H](c4ccc(-c5cccc(F)c5)cc4)[C@H]3C2)c1	-0.3	i	1	2	2.0
CN1[C@@H]2Cn3c(ccc(-c4ccccc4)c3=O)[C@H]1[C@@H](C(=O)N1CCC(Cc3ccccc3)CC1)[C@@H]2CO	2.1	i	-1	-8	4.5
Cc1noc(C)c1S(=O)(=O)Nc1ccc2c(c1)CC(=O)N([C@H](C)CO)C[C@@H](C)[C@H](CN(C)CC1CC1)O2	-4.1	i	2	4	-0.5
CC(C)C[C@H]1COc2cc(N3CC[C@H](O)C3)ccc2S(=O)(=O)N1	-0.4	i	-7	-3	-3.8
Following part
SMILES	AF4-AF9 inh	FGF22 binding	rRNA inh HTS	rRNA inh HTS OD600	rRNA inh HTS RFP
C[C@@H](NC(=O)C[C@@H]1CC[C@H]2[C@H](COc3ccc(NS(=O)(=O)c4ccc(Cl)cc4)cc3C(=O)N2C)O1)c1ccccc1	0.5	i	-3	-13	2.3
COc1cccc(CN(C)C[C@H]2OCc3ccccc3-c3ccccc3C(=O)N([C@H](C)CO)C[C@@H]2C)c1	1.4	i	-2	-9	-0.1
C[C@H](CO)N1C[C@H](C)[C@H](CN(C)CC2CC2)Oc2ccc(NS(=O)(=O)c3cccs3)cc2C1=O	-1.9	i	-2	-10	-2.2
COCCNC(=O)C[C@@H]1CC[C@H]2[C@@H](COC[C@H](O)CN2C(=O)Nc2ccc3c(c2)OCO3)O1	-0.6	i	2	7	-2.7
C[C@@H]1CN([C@H](C)CO)C(=O)CCCn2nncc2CO[C@H]1CN(C)Cc1ccc2c(c1)OCCO2	-0.7&-2.2&1.7	i	2	8	-2.2
C[C@H](CO)N1C[C@H](C)[C@H](CN(C)S(=O)(=O)c2cccs2)Oc2ccc(NC(=O)c3ccncc3)cc2C1=O	-2.2	i	1	3	1.6
CCCS(=O)(=O)NC(=O)C1(C)CCCN(C(=O)c2ccc(SC(F)(F)F)cc2)C1 (centres undefined)	1.3	i	-1	9	-3.7
N#C[C@@H]1[C@H](c2ccc(C3=CCCC3)cc2)[C@H](CO)N1C(=O)NC1CCCC1	-3.2	i	4	17	-0.8
N#C[C@H]1[C@H](c2ccccc2-c2ccccc2)[C@@H](CO)N1C(=O)Cc1cccnc1	-2.5	i	-6	-5	3.4
CC(=O)N(C)C[C@H]1Oc2cc(-c3ccc(C#N)cc3)ccc2S(=O)(=O)N([C@H](C)CO)C[C@@H]1C	-2.8	i	-2	4	-0.6
CCCC#Cc1ccc2c(c1)O[C@@H](CN(C)CC1CCOCC1)[C@H](C)CN([C@H](C)CO)S2(=O)=O	5.8	i	-5	-21	2.1
O=C(Nc1ccccc1)N[C@@H]1CC[C@@H](CCNS(=O)(=O)c2ccccc2F)O[C@@H]1CO	0.1	i	0	14	-1.7
C/C=C/c1ccc(C2[C@H]3CNC[C@@H]2N3S(=O)(=O)c2cccc(F)c2)cc1 (some centres undefined)	-1.3	i	2&-14	5&-16	-1.0&-2.4
O=C(NCCN1CCC(n2c(=O)[nH]c3ccccc32)CC1)c1ccc(C(F)(F)F)cc1C(F)(F)F	2.1	i	0	-24	-3.6
COCC#Cc1cnc2c(c1)C(=O)N([C@@H](C)CO)C[C@H](C)[C@@H](CN(C)C(=O)c1ccc(F)cc1)O2	-4.3	i	2	12	1.1
CCCC(=O)Nc1ccc2c(c1)OC[C@@H](C)N(Cc1cccc(F)c1)C[C@@H](C)[C@H](OC)CN(C)C2=O	3.9	i	-5	-14	7.0
CO[C@@H]1CN(C)C(=O)c2ccc(NC(=O)C3CC3)cc2OC[C@H](C)N(C(=O)c2cccnc2)C[C@H]1C	0.1	i	0	2	-1.3
Cc1noc(C)c1NC(=O)N(C)C[C@@H]1Oc2c(NS(=O)(=O)c3ccccc3)cccc2C(=O)N([C@@H](C)CO)C[C@H]1C	1.7	i	4	3	-1.4
C[C@@H]1CN([C@@H](C)CO)C(=O)c2cccc(NC(=O)C3CC3)c2O[C@H]1CN(C)C(=O)Nc1ccccc1	-5.1	i	3	-1	0.3
C[C@H](CO)N1C[C@H](C)[C@H](CN(C)CC2CC2)Oc2cc(-c3cncnc3)ccc2S1(=O)=O	-2.5	i	5	-2	-2.2
CNC(=O)C[C@@H]1CC[C@@H]2[C@H](COC[C@@H](O)CN2Cc2ccncc2)O1	-3.2	i	0	-5	-5.0
O=C(C[C@H]1CC[C@@H]2[C@H](COC[C@@H](O)CN2C(=O)Nc2ccccc2)O1)NCCCN1CCOCC1	-2.2	i	3	8	-5.0
Cc1ccc(-c2nc3c(C)cc(Br)cn3c2Cc2ccccc2)cc1	-1.0	i	-6	-2	4.4
C[C@H]1CN([C@@H](C)CO)C(=O)Cc2cc(NC(=O)Nc3cccc4ccccc34)ccc2O[C@H]1CN(C)Cc1ccc(C(=O)O)cc1	-3.3	i	-2	-3	-0.1
C[C@@H]1CN([C@H](C)CO)C(=O)c2cc(NC(=O)Cc3ccccc3)ccc2O[C@@H](C)CCCCO[C@@H]1CN(C)C(=O)c1ccccc1	-2.8	i	-3	2	1.7

Nine compounds from above, arranged by SMILES length, smallest number first:
SMILES	AF4-AF9 inh	FGF22 binding	rRNA inh HTS	rRNA inh HTS OD600	rRNA inh HTS RFP
CCCS(=O)(=O)NC(=O)C1(C)CCCN(C(=O)c2ccc(SC(F)(F)F)cc2)C1 (centres undefined)	1.3	i	-1	9	-3.7
C/C=C/c1ccc(C2[C@H]3CNC[C@@H]2N3S(=O)(=O)c2cccc(F)c2)cc1 (some centres undefined)	-1.3	i	2&-14	5&-16	-1.0&-2.4
N#C[C@H]1[C@H](c2ccccc2-c2ccccc2)[C@@H](CO)N1C(=O)Cc1cccnc1	-2.5	i	-6	-5	3.4
O=C(NCCN1CCC(n2c(=O)[nH]c3ccccc32)CC1)c1ccc(C(F)(F)F)cc1C(F)(F)F	2.1	i	0	-24	-3.6
O=C(C[C@H]1CC[C@@H]2[C@H](COC[C@@H](O)CN2C(=O)Nc2ccccc2)O1)NCCCN1CCOCC1	-2.2	i	3	8	-5.0
CC(=O)N(C)C[C@H]1Oc2cc(-c3ccc(C#N)cc3)ccc2S(=O)(=O)N([C@H](C)CO)C[C@@H]1C	-2.8	i	-2	4	-0.6
CCCC(=O)Nc1ccc2c(c1)OC[C@@H](C)N(Cc1cccc(F)c1)C[C@@H](C)[C@H](OC)CN(C)C2=O	3.9	i	-5	-14	7.0
COCC#Cc1cnc2c(c1)C(=O)N([C@@H](C)CO)C[C@H](C)[C@@H](CN(C)C(=O)c1ccc(F)cc1)O2	-4.3	i	2	12	1.1
Cc1noc(C)c1NC(=O)N(C)C[C@@H]1Oc2c(NS(=O)(=O)c3ccccc3)cccc2C(=O)N([C@@H](C)CO)C[C@H]1C	1.7	i	4	3	-1.4

Additional records:
SMILES	AF4-AF9 inh	FGF22 binding	rRNA inh HTS	rRNA inh HTS OD600	rRNA inh HTS RFP
CO[C@H]1CN(C)C(=O)c2cc(NC(=O)Cc3ccccc3)ccc2OC[C@@H](C)N(C)C[C@@H]1C	-1.8	i	-2	3	-0.2
O=C(CCN1CCCCC1)N[C@@H]1CC[C@H](CCNS(=O)(=O)c2ccc(F)cc2)O[C@@H]1CO	1.9	i	3	1	0.0
COc1ccc([C@H]2CN(c3ccc(OC)cc3)C(=O)[C@@H]2CC(=O)Nc2ccc(Br)cc2)cc1	-0.5	i	-12	-7	-2.9
C[C@@H]1CN([C@H](C)CO)C(=O)Cc2cc(NC(=O)Nc3ccc4c(c3)OCO4)ccc2O[C@@H]1CN(C)S(=O)(=O)c1ccc(Cl)cc1	5.1	i	4	-3	3.0
Cc1noc(C)c1NC(=O)Nc1ccc2c(c1)C(=O)N([C@@H](C)CO)C[C@H](C)[C@@H](CN(C)Cc1ccccc1)O2	0.3	i	3	6	-1.3
CC(C)CC#Cc1ccc2c(c1)O[C@H](CN(C)C(=O)c1cccc(F)c1)[C@@H](C)CN([C@@H](C)CO)S2(=O)=O	4.3	i	-2	-11	0.0
O=C(C[C@H]1CC[C@@H](NC(=O)CCN2CCCCC2)[C@@H](CO)O1)NCc1ccc(Cl)c(Cl)c1	1.0	i	-1	2	1.7
CCCCN1CCC(CN2C(=S)NC[C@@H]2CC(C)C)CC1	-1.0	i	5	13	-4.5
Cc1ccc(S(=O)(=O)N(C)C[C@@H]2Oc3ccc(NC(=O)Nc4ccc(C(F)(F)F)cc4)cc3C(=O)N([C@H](C)CO)C[C@H]2C)cc1	-3.2	i	0	5	1.2
CN1C(=O)[C@@](O)(c2cn(C)c3ccccc23)c2cc(Br)ccc21	3.3	i	-23*	-16*	2.9*
CCCc1cn(CC[C@@H]2CC[C@@H](NC(=O)C3CC3)[C@H](CO)O2)nn1	1.9	i	-3	0	0.8
Cc1cccc(CN(C)C[C@@H]2Oc3ncc(C#Cc4ccccc4)cc3C(=O)N([C@H](C)CO)C[C@@H]2C)c1	8.5	i	-13	-42	31
COc1cccc(-c2ccc3c(c2)O[C@@H](CN(C)Cc2ccncc2)[C@@H](C)CN([C@@H](C)CO)S3(=O)=O)c1	3.1	i	-42	-59	6.7
CC1(C(=O)NCc2cccc(Cl)c2)Cc2c(-c3ccc(C(N)=O)cc3)ccnc2O1 (centres undefined)	0.7	i	-2	5	-0.2
CC(C)NC(=O)N(C)C[C@@H]1OCCCC[C@@H](C)Oc2ccc(N(C)C)cc2C(=O)N([C@H](C)CO)C[C@@H]1C	-1.0	i	4	6	-0.3
